Screens: PubChem, ICCB-Longwood Screening Facility, Harvard Medical School
GIV Gai3 FP – inhibitors of GIV peptide binding to Galpha-i3, primary screen, biochemical, fluorescence polarization, FITC-GIV GBA peptide, rat Galphai3; percent of control (FP), % (no concentration beside the values); Guanine nucleotide-binding protein G(i) subunit alpha-3 (Rattus norvegicus), P08753; 210,000 tested, 0.42% active; 90 min; hits give low values; scaled: aluminum fluoride 0%, vehicle 100%;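 active = replicate mean at 85% of control or lower, very high polarization wells dropped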;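 also: wells of about 15 µL received 100 nL stock; the first replicate is given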
Target sequence (P08753 whole entry, looked up): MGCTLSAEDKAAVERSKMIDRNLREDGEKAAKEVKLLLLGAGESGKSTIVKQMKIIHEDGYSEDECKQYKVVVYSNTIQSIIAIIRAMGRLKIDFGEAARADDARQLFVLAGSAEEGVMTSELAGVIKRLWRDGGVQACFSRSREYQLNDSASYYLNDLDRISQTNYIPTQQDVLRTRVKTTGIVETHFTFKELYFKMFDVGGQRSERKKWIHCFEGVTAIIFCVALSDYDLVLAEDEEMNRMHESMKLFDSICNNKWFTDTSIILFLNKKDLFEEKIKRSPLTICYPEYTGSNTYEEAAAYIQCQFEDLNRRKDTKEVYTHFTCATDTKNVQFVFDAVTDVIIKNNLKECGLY
Sa growth 42C – S. aureus growth inhibition at 42 and 30 °C, primary screen, LtaS inhibitor project, RN4220, two temperatures; 170,000 tested, 0.53% active; relative growth, % (no concentration beside the values); OD600, 20 h, 42 °C; hits give low values;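 active = growth at 42 °C up to 50% and 20 or more points under that at 30 °C, or under 10% at both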;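 also: 300 nL library stock went into each well; scaled to the means of positive and negative controls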
HCMV UL50-53 inh – inhibitors of HCMV UL50-UL53 interaction, biochemical, HTRF. normalized percent inhibition. inhibition, % (test concentration not listed). 190,000 tested, 0.15% active. AID 1918969, 2023;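 active = both replicates at 50% or more, plus weaker picks with an unusually low signal ratio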;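 also: stock transfer was 100 nL into about 20 µL; 0% = negative control wells and 100% = wells with untagged competitor protein; inactives centre near -12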
Sa growth 42C second temp – second read-out of Sa growth 42C, no call of its own (marks repeat the call); relative growth, %; measured here: growth at 30 °C;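 optical density after 20 h as mean of two plates; 100% = untreated growth and lower means inhibition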
Starred values were filed as active, the others as inactive; · = no result given; & = joins results of further samples.

Values run as follows: GIV Gai3 FP, Sa growth 42C, Sa growth 42C second temp, HCMV UL50-53 inh
CCC(=O)NCC1COc2ccccc2O1 (stereo not drawn)
  101, 99, 75, -6
CCS(=O)(=O)N1N=C(c2ccc(C)cc2)CC1c1cc2ccc(OC)cc2nc1Cl (stereo not drawn)
  202, 99, 87, -37
Cc1cc(NC(=O)CSc2nnc(COc3ccc(Cl)cc3C)n2C2CCCCC2)no1
  ·, 110, 102, -9
Cc1ccc(N2C(=O)C3N=NN(CC(=O)Nc4ccc5c(c4)OCO5)C3C2=O)cc1C (stereo not drawn)
  101, ·, ·, -18
COC(=O)CC1=NN(c2nc(C)cc(C)n2)C(=O)C1
  103, 96, 91, 2
CC1(C)CC(=O)C(C(N)=NC(=O)c2ccccc2)=C(O)C1
  102, 99, 84, ·
CC(C)(C)OC(=O)N1CCC(C(=O)N2CCCCC2)CC1
  98, 85, 87, ·
Cc1nn(C(C)C(=O)NCCCN2CC(C)CC(C)C2)c(=O)c2c1sc1ccccc12 (stereo not drawn)
  105, 112, 90, 0
Cc1ccccc1C(=O)Nc1c(C)nc2ccccn2c1=O
  98&97, 90, 93, ·
O=C(CN1c2cccc3cccc(c23)S1(=O)=O)N1CCCCC1
  ·, 91, 102, 11
CN1C(=O)c2ccccc2C(C(=O)O)C1c1c[nH]c2ccccc12 (stereo not drawn)
  95, 104, 88, 0
O=C(NC1=NCCS1)c1ccccn1
  101, 114, 78, ·
CCc1ccc(NS(=O)(=O)c2ccc3[nH]c(=O)ccc3c2)cc1
  101, 89, 67, ·
COc1ccc(CNC(=O)c2cnc3sc(N4CCC(C)CC4)nn3c2=O)c(OC)c1
  101, 105, 93, ·
Cc1cccc(N2CCN(CC(=O)Nc3ccc4[nH]c(=O)[nH]c4c3)CC2C)c1 (stereo not drawn)
  98, ·, ·, -25
CS(=O)(=O)Nc1cccc(C(=O)OCC(=O)Nc2ccccc2F)c1
  ·, 74, 80, -23
CCOC(=O)C1CCN(C(=O)c2cc3cc4cc(OC)ccc4nc3o2)CC1
  104, ·, ·, -94
O=C(Nc1ccc(Cl)cc1)OCc1noc(-c2cccs2)n1
  105, 92, 86, -6
COC(=O)c1sccc1NC(=O)c1cn2c3c(ccc(Cl)c3c1=O)OC(C)C2 (stereo not drawn)
  106, ·, ·, -13
CCC(C(=O)Nc1ccccc1C(=O)OC)n1nc(C)c2c(C)n(-c3ccc(C)cc3)nc2c1=O (stereo not drawn)
  102, 95, 88, ·
O=C(NCc1ccccn1)NCc1noc2ccccc12
  98, 97, 91, -16
O=C(CC1CCN(C(=O)c2ccccc2)CC1)N1CCN(c2ccccn2)CC1
  101, ·, ·, -29
CC1CN(C(=O)CCC2CCCCC2)CC(C)O1 (stereo not drawn)
  110, 105, 100, -10
COc1ccccc1CNC(=O)C1c2c(C)nn(-c3ccccc3)c2SCC(=O)N1c1ccccc1Cl (stereo not drawn)
  102, ·, ·, -19
Clc1ccccc1CNc1ncnc2c1c(-c1ccccc1)cn2-c1ccccc1
  103, 86, 87, ·
Cc1ccccc1C(=O)Nc1cc(C)c(O)c(-c2nc3ccccc3o2)c1
  101, 97, 83, -10
O=C(Oc1ccc(C(=S)N2CCCCC2)cc1)c1ccccc1
  101, 103, 88, ·
CCc1ccc(NC(=O)c2cc(=O)c3ccc(C)c(C)c3o2)cc1
  111, 91, 95, 9
O=C(COn1nnc2ccccc21)NCC1CCCCC1
  ·, 97, 88, 1
CCOC(=O)c1nc(C)sc1-c1ccnn1C(=O)c1ccc(OC)cc1
  102, 95, 83, -17
Cc1cc(C)nc(NS(=O)(=O)c2ccc(N3C(=O)c4ccccc4C3=O)cc2)n1
  102, ·, ·, -37
CC(=O)OC1CCS(=O)(=O)C1 (stereo not drawn)
  103, 123, 85, ·
COc1cccc(-c2nn(CN3CCCC3)c(=S)n2C)c1
  ·, 82, 79, -40
O=C(CSc1nccn1-c1cccc(Cl)c1)Nc1cccc(C(F)(F)F)c1
  104, 106, 84, ·
CC(=O)Nc1ccccc1-c1nc2ccccc2n(C(C)C(=O)c2ccc(C)c(C)c2)c1=O (stereo not drawn)
  111&101, 123, 105, 13&-14
Cc1ccccc1Cn1c(=O)n(CCCCC(=O)NCc2ccccc2Cl)c(=O)c2ccccc21
  100, 92, 92, 0
O=C(CS(=O)(=O)c1cccc2nsnc12)N1CCN(c2ccccc2F)CC1
  100, 81, 87, ·
Cc1cc(N2C(=O)CCC2=O)n(-c2ccccc2)n1
  101, 99, 90, -21
O=C(COC(=O)C1CCC1)Nc1ccc(F)c(Cl)c1
  ·, 79, 87, -14
Cc1ccc(C)c(NC(=O)CC(Cc2ccccc2)C(=O)O)c1 (stereo not drawn)
  ·, 122, 87, -1
Cc1[nH]c2ccc(C(=O)NCCN3CCCCCC3)cc2c1C
  113, 106, 88, -17
Cc1ccc(CNC(=O)CCCCCn2c(=O)c3sccc3n(CC(=O)N(C)c3ccccc3)c2=O)cc1
  106, 94, 84, -34
Cn1cnc(S(=O)(=O)Nc2ccccc2Cl)c1
  105, ·, ·, -15
N=c1scc(-c2ccccc2)n1-c1ccc(Cl)cc1Cl
  95, 89, 77, -19
Clc1ccc(N2Cc3ccccc3C2)cc1Cl
  ·, 134, 78, -16
CCN(CCO)c1ccc(NC(=S)Nc2ccc(OC)cc2)cc1
  ·, 111, 83, -8
Cc1ccc(C)c(S(=O)(=O)N2CC3(C)CC2CC(C)(C)C3)c1 (stereo not drawn)
  ·, 74, 79, -6
Cc1cc(C(=O)NCc2cc(F)cc3c2OCOC3)nn1C
  102, 95, 83, -50
O=S(=O)(c1ccc(Oc2ncnc3sccc23)c(Cl)c1)N1CCOCC1
  ·, 94, 85, -13
Cc1cc(C)c(-c2c(N3CCN(C)CC3)c(=O)c2=O)cc1C
  103, ·, ·, -6
CC(C)n1c(SCC(=O)Nc2ccc(F)cc2)nc2c(oc3ccccc32)c1=O
  101, 96, 81, -16
CCOC(=O)c1c(C)oc2c1c(C=NC1CCS(=O)(=O)C1)c(O)c1ccccc12 (stereo not drawn)
  ·, 98, 96, -11
Clc1ccc(N2CCN(C3=Cc4ccccc4CC3)CC2)cc1Cl
  106, 103, 99, 6
CCOC(=O)c1sc(NC(=O)c2nc3nc(C)cc(C(F)F)n3n2)c(C(=O)OC(C)C)c1C
  101, 89, 91, -9
CCNC(=S)Nc1sc2c(c1C#N)CCC(C)C2 (stereo not drawn)
  105, 97, 84, -30
CCCSc1nc2cc(C)c(C)cc2n1CC(C)O (stereo not drawn)
  ·, 121, 79, -26
Cc1ccc(NC(=S)NCCCO)c(C)c1
  99, 89, 76, -6
Nc1cc(=O)nc(SCC(=O)Nc2ccc(F)cc2)n1-c1ccccc1Cl
  101, 112, 86, -5
COc1ccc(C2CC(=O)C3=C(C2)Nc2onc(C)c2C3c2ccc(OC)c(OC)c2)cc1OC (stereo not drawn)
  110, ·, ·, -17
CCSc1nnc(NC(=O)c2cccc(C(=O)Nc3nnc(SCC)s3)n2)s1
  111, ·, ·, -4

Given as a markdown table: entries from further up.
| Compound | GIV Gai3 FP | Sa growth 42C | Sa growth 42C second temp | HCMV UL50-53 inh |
| --- | --- | --- | --- | --- |
| Cn1cnc(S(=O)(=O)Nc2ccccc2Cl)c1 | 105 | · | · | -15 |
| N=c1scc(-c2ccccc2)n1-c1ccc(Cl)cc1Cl | 95 | 89 | 77 | -19 |
| Clc1ccc(N2Cc3ccccc3C2)cc1Cl | · | 134 | 78 | -16 |
| CCN(CCO)c1ccc(NC(=S)Nc2ccc(OC)cc2)cc1 | · | 111 | 83 | -8 |
| Cc1ccc(C)c(S(=O)(=O)N2CC3(C)CC2CC(C)(C)C3)c1 (stereo not drawn) | · | 74 | 79 | -6 |
| Cc1cc(C(=O)NCc2cc(F)cc3c2OCOC3)nn1C | 102 | 95 | 83 | -50 |
| O=S(=O)(c1ccc(Oc2ncnc3sccc23)c(Cl)c1)N1CCOCC1 | · | 94 | 85 | -13 |
| Cc1cc(C)c(-c2c(N3CCN(C)CC3)c(=O)c2=O)cc1C | 103 | · | · | -6 |
| CC(C)n1c(SCC(=O)Nc2ccc(F)cc2)nc2c(oc3ccccc32)c1=O | 101 | 96 | 81 | -16 |
| CCOC(=O)c1c(C)oc2c1c(C=NC1CCS(=O)(=O)C1)c(O)c1ccccc12 (stereo not drawn) | · | 98 | 96 | -11 |
| Clc1ccc(N2CCN(C3=Cc4ccccc4CC3)CC2)cc1Cl | 106 | 103 | 99 | 6 |
| CCOC(=O)c1sc(NC(=O)c2nc3nc(C)cc(C(F)F)n3n2)c(C(=O)OC(C)C)c1C | 101 | 89 | 91 | -9 |
| CCNC(=S)Nc1sc2c(c1C#N)CCC(C)C2 (stereo not drawn) | 105 | 97 | 84 | -30 |
| CCCSc1nc2cc(C)c(C)cc2n1CC(C)O (stereo not drawn) | · | 121 | 79 | -26 |
| Cc1ccc(NC(=S)NCCCO)c(C)c1 | 99 | 89 | 76 | -6 |
| Nc1cc(=O)nc(SCC(=O)Nc2ccc(F)cc2)n1-c1ccccc1Cl | 101 | 112 | 86 | -5 |
| COc1ccc(C2CC(=O)C3=C(C2)Nc2onc(C)c2C3c2ccc(OC)c(OC)c2)cc1OC (stereo not drawn) | 110 | · | · | -17 |
| CCSc1nnc(NC(=O)c2cccc(C(=O)Nc3nnc(SCC)s3)n2)s1 | 111 | · | · | -4 |

Remaining list, next part
Codes: A = GIV Gai3 FP; B = Sa growth 42C; C = Sa growth 42C second temp; D = HCMV UL50-53 inh
Cc1cc2nc(-c3ccc(NC(=O)c4ccccc4F)cc3)oc2cc1C
  A = 110	B = 102	C = 88	D = -54
Cc1c(NC(=O)C23CC4CC(C)(CC(C)(C4)C2)C3)c(=O)n(-c2ccccc2)n1C
  A = 97	B = 88	C = 92	D = -6
COc1ccccc1-c1cc(=O)n(CC(=O)N2CCC(C(N)=O)CC2)c2c1CCCC2
  A = 98	B = 98	C = 81	D = -14
O=C(CSc1nc2ccccc2[nH]1)c1nnc(-c2ccc(Cl)cc2)o1
  A = ·	B = 96	C = 91	D = -1
Cc1ccc(Oc2ccc(S(=O)(=O)N3CCOCC3)cc2C(N)=O)c(-n2nc3ccccc3n2)c1
  A = 109	B = 99	C = 77	D = -21
N#Cc1cnc(N2CCN(c3ccccc3)CC2)nc1N
  A = 106	B = 102	C = 99	D = 9
O=C(CCCC(=O)c1ccccc1)Nc1nc2ccc(Br)cc2s1
  A = 99	B = 87	C = 93	D = ·
COC(CN(C)C(=O)C1CCC(CNS(=O)(=O)c2ccc(Cl)cc2)CC1)OC (stereo not drawn)
  A = 114	B = 100	C = 102	D = 0
O=C(Nc1ccc(F)cc1)c1oc2ccccc2c1CSc1ncn[nH]1
  A = ·	B = 87	C = 77	D = 9
COc1ccc(C(=O)NCC2COc3ccccc3O2)cc1OC (stereo not drawn)
  A = 101	B = 98	C = 89	D = ·
COC(=O)Nc1ccc(S(=O)(=O)N(C)C)cc1
  A = 102	B = 110	C = 92	D = ·
COc1cc(C)nc(NC(=O)NS(=O)(=O)c2ccccc2NC(=O)C(F)(F)F)n1
  A = ·	B = 96	C = 91	D = -14
CS(=O)(=O)Nc1ccc(C2=NN(C(=O)CCC(=O)O)C(c3ccccc3)C2)cc1 (stereo not drawn)
  A = 103	B = ·	C = ·	D = -36
COC(=O)Cn1c2ccccc2c2nc3ccccc3nc21
  A = 109	B = 98	C = 100	D = -14&-16
O=S1(=O)C[C@H](N2CCN(c3ccccc3F)CC2)[C@@H](S(=O)(=O)c2ccccc2)C1
  A = 98	B = ·	C = ·	D = -10
CC(=O)N1c2ccccc2C(=O)C1N1CCN(c2cccc(C(F)(F)F)c2)CC1 (stereo not drawn)
  A = 103	B = 82	C = 92	D = ·
